# Source: PubChem
# Six1-Eya2 inh: Six1/Eya2 interaction inhibition. Q15475+O00167. AlphaScreen GST-Six1/His-Eya2 binding, biochemical; stronger effect = lower value; control for the full effect not named in the record. activity change, % (no concentration beside the values). 0.56% of 360,000 active. AID 651725; in the data active = activity change below about -65%; inconclusive = about -30% to -65%; inactive = above about -30%; further: on the % scale 0 is the no-effect control and ±100 the full control effect; compound concentration not given in the record
#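 Six1/Eya2 binding was read as AlphaScreen signal after compounds were pinned into GST-Six1 plus His-tagged Eya2 (5X stock 250/500 nM) in pH 8.0 Tris/NaCl/TCEP buffer, beads added, then incubated 1 h, 37 C, dark.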
# TRPML1 blocker: human mucolipin-1 channel inhibition; TRPML1-inducible cells, Ca2+ dye fluorescence, FDSS; stronger effect = lower value; inhibition of EC80 agonist-evoked calcium signal; activity change, negative = inhibition, % (test concentration not listed); 0.02% of 390,000 active; AID 624415; in the data active means activity change below about -50%; inconclusive means about -30% to -50%; inactive means above about -30%;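 further: stimulus is agonist 54-4 at its EC80 concentration; on the % scale 0 is the no-effect control and ±100 the full control effect; compound concentration not given in the record; the text of the record puts the active cut at -80%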
# Target sequence (Q9GZU1 whole entry, looked up): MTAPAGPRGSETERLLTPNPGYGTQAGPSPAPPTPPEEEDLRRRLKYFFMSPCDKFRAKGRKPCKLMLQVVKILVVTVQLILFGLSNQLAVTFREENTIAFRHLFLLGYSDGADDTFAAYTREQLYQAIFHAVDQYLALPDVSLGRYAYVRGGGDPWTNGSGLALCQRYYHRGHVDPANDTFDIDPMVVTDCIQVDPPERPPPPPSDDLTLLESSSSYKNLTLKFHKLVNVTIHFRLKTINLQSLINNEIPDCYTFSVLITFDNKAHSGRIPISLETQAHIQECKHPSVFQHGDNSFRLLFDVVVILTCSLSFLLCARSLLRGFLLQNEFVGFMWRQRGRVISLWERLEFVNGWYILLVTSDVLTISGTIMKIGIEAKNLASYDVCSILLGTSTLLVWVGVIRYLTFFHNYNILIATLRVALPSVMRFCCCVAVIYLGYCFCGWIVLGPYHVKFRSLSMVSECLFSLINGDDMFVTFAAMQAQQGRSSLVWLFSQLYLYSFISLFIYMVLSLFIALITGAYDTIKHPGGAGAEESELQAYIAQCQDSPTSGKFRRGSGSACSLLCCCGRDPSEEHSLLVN
#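 Calcium fluorescence in TRPML1-DL cells induced overnight with Tet: a 110 s read after compound pin addition, then a 110 s antagonist read after challenge with 54-4 at 4 uM final (EC80).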
# PINK1 expr mod: PINK1 expression modulation; PINK1 immunofluorescence, high-content cytometry, 24 h; Potency, µM (highest dose often 76.6 µM), for the others: at the highest dose activation (PINK1 increase), actives largely listed as activators; 0.2% of 410,000 active; active = well fitted activation curve with a large enough effect; inconclusive = small, poorly fitted or top-dose-only effect; inactive = flat fitted curve, though single readings scatter; cell line not stated here;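 further: potency means the concentration at half of the fitted maximal effect; % of control where 0% means no effect; nearly all actives have a fitted effect of over 65% in size; a mitochondrial uncoupler was the plate control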
#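 Measures PINK1 amount and localization on or inside mitochondria by immunofluorescence. Stable cells get compounds at 5 concentrations for 24 hours before fixation and staining; CCCP controls included.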
# D2 agonist: activates the human D2 dopamine receptor. activation, % (no concentration beside the values). 0.084% of 360,000 active. DiscoveRx PathHunter D2 beta-arrestin, luminescence, 90 min; 100% = 57 uM dopamine signal; in the data active = activation above about 40%; inconclusive = about 15% to 40%; inactive = below about 15%; further: compound concentration not given in the record; the text of the record calls up to 30% inactive
# Target sequence (P14416 whole entry, looked up): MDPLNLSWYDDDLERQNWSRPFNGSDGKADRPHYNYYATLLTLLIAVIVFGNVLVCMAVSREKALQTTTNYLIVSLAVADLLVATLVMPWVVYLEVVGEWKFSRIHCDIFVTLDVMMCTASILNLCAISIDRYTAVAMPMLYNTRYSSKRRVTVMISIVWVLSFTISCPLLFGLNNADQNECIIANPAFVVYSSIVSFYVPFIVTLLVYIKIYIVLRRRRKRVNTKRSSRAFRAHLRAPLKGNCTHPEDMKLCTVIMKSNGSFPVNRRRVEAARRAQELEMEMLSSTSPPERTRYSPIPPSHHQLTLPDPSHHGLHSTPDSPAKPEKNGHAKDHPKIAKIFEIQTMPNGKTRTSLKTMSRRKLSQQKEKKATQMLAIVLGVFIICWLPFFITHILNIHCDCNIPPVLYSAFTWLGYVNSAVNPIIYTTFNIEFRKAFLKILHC
#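 DiscoveRx PathHunter D2 beta-arrestin cells (2,100/well) attached overnight, then compound-stimulated 90 min at 37 C in HBSS/10 mM HEPES/0.1% Tween-20 buffer; beta-galactosidase complementation read by luminescence after 1 h at ambient temperature. Dopamine 57 uM final (EC100) as control.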
# TRPML1 ag: human mucolipin-1 channel agonism | AID 624414 | Q9GZU1 | TRPML1-expressing cells, Ca2+ dye fluorescence, FDSS; host cell line not named in the record; reference of the full effect not given here | 0.12% of 410,000 active | activation, % (test concentration not listed); in the data active = activation above about 50%; inconclusive = about 30% to 50%; inactive = below about 30%; further: 0% is about no effect; the text of the record puts the active cut at 80%
#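 Agonist activity was taken from a 110 s kinetic Ca2+ dye read on the FDSS after pinning compounds onto TRPML1-DL cells. The cells were seeded at 1,500/well with Tet inducer, incubated about 16 h, then dye-loaded at room temperature.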
# CtBP-E1A inh: CtBP/E1A binding inhibition; 0.49% of 340,000 active; AlphaScreen GST-E1A/His-CtBP binding, 1536-well; stronger effect = lower value; control for the full effect not named in the record; activity change, % (concentration not given with the values); in the data active means activity change below about -65%; inconclusive means about -30% to -65%; inactive means above about -30%; further: on the % scale 0 is the no-effect control and ±100 the full control effect
#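 AlphaScreen with 125 nM GST-E1A and 125 nM His-CtBP (5X stocks) in Tris pH 8.0, 300 mM NaCl, BSA, Tween 20, TCEP. Compounds preincubated 2 h at 37 deg C, then glutathione donor/nickel acceptor beads added for 1 h at 37 deg C in dark.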
# An asterisk follows results filed as active; ? = inconclusive; . = no result given; [ ] = dose if it differs, or a comment.
SMILES	Six1-Eya2 inh	TRPML1 blocker	PINK1 expr mod	D2 agonist	TRPML1 ag	CtBP-E1A inh
C[C@H](CO)N1C[C@H](C)[C@@H](CN(C)C(=O)Nc2ccccc2)Oc2ccc(NC(=O)Nc3ccccc3)cc2C1=O	?	15	1.3%	2.2	-0.4	?
CC1(C)CC(=O)C2=C(C1)OC(N)=C(C#N)C2c1ccccc1[N+](=O)[O-] (stereo not drawn)	4	-5	-0.1%	-5.9	5.2	-3
[O-]/C(=C(\C(=S)Nc1ccc(SC(F)F)cc1)[n+]1ccccc1)c1ccc(Cl)cc1Cl	-15	-2	-0.8%	5.8	-0.2	-14
CCc1ccc(-c2nn(CC(=O)NC3CCCC3)c3c2cnc2ccc(C)cc23)cc1	.	-5	0.2%	.	0.7	.
CCN1C[C@@H]2[C@@H]3C(=O)N(Cc4ccccc4)C(=O)[C@@H]3[C@](CC)(C1=O)N2C(=O)c1ccc(F)cc1	2	9	1.6%	-1.9	-0.4	6
Cn1c(C(=O)Nc2ccc(OC(F)(F)F)cc2)cc2c(=O)n3ccccc3nc21	.	7	-0.3%	.	0.8	.
CC1(C)CCc2cc(CN3CCN(c4ccccn4)CC3)ccc2O1	-12	-14	8.4%	13	-1.1	-6
Cn1cc(CN2CCC(Oc3ccc(C(=O)N4CCCC4)cc3)CC2)cn1	0	13	-0.9%	-0.6	-0.4	1
Cc1ccc(Oc2nn[nH]n2)cc1	1	-17	-3.8%[38.3 µM]	-1.9	-0.5	4
Cc1nn(Cc2ccc(Cl)c(Cl)c2)c(C)c1NC(=O)c1cc(-c2ccco2)on1	-3	1	20%[38.3 µM]	4.5	1.7	-2
Cn1c(CNC(=O)Nc2ccccc2)nnc1SCc1ccccc1	1	6	0.6%	-5.0	-0.6	-2
CCCCCOC(=O)Cn1c(N2CCOCC2)nc2c1c(=O)[nH]c(=O)n2C	1	-6	1.9%	-3.5	0.2	4
Cc1ccc(NC(=O)c2cc(C)nc3c2c(C)nn3-c2cccc(Cl)c2C)c(C)c1	.	-16	0.1%	.	-0.2	.
COC(=O)[C@]1(Sc2ccccc2)CC(=O)N[C@@H]1c1ccccc1	6	.	0.2%	.	-0.3	0
COc1cc2c(cc1NC(=O)CN(C)Cc1nc3ccccc3c(=O)[nH]1)oc1ccccc12	-2	-12	-3.7%	-3.8	0.2	-9
O=C(Nc1cccnc1)c1cc(F)cc(F)c1	6	3	-2.3%	2.2	1.0	5
CC(C)c1ccc2oc(-c3ccc(N)cc3)nc2c1	2	53	4.8%[38.3 µM]	-1.2	-0.9	-5
COC(=O)c1ccc(-n2c(/C=C/c3cc(OC)c(OC)c(OC)c3)nc3cc(Cl)ccc3c2=O)cc1	.	7	9.4%	.	-0.2	.
O=C(COC(=O)C12CC3CC(CC(Br)(C3)C1)C2)Nc1cccc(S(=O)(=O)N2CCOCC2)c1	-6	3	?	0.5	-0.1	-5
CCOCC(=O)Nc1ccc(Br)c(C)c1	8	-6	1.3%	4.2	-0.4	.
Cc1cc(C)c(N(C(=O)c2csnn2)C(C(=O)NC2CCCC2)c2ccncc2)c(C)c1 (stereo not drawn)	6	-10	10.0%	-3.7	-0.8	25
Cc1cc2cc3c(cc2nc1SCC(=O)N1CCOCC1)OCO3	-13	28	0.2%	-1.5	0.3	0
NS(=O)(=O)c1ccc(CCNC(=O)COc2ccc3c4c(c(=O)oc3c2)CCC4)cc1	-1	-17	-2.1%	-0.7	-1.3	-17
CCC(=O)Nc1ccc(Cl)c(NC(=O)c2c(OC)cccc2OC)c1	4	47	-0.2%	-0.5	-0.5	1
CC(=O)Nc1ccn(Cc2c(F)cccc2Cl)n1	0	-7	0.9%	-3.1	-0.2	13
CCCNC(=O)c1nnsc1Sc1ccc(Cl)cc1	12	33	3.6%	-2.7	2.1	6
COc1ccc(S(=O)(=O)Nc2ccc(-c3cn4c(C)csc4n3)cc2)cc1	.	0	-3.4%	.	3.9	.
O=C(Nc1ncccn1)c1cc([N+](=O)[O-])cc([N+](=O)[O-])c1	5	-13	-1.9%	4.6	0.0	-1
Cc1cc(C)cc(NC(=O)CCC(=O)Nc2cc(C)on2)c1	5	-11	.	-2.0	0.3	3
Cc1ccc(S(=O)(=O)NC(C(=O)N2CCOCCOCCOCC2)C(C)C)cc1 (stereo not drawn)	4	6	0.0%	-1.7	1.0	5
CSc1ccc(C(=O)C2CCCN(C(=O)c3ccsc3)C2)cc1 (stereo not drawn)	0	7	-0.7%	1.3	3.0	.
CCOc1ccc(NC(=O)c2ccco2)c([N+](=O)[O-])c1	-7	7	8.5%	8.6	0.3	3
CCCCC(=O)N(C)c1c(CC)nc2c(OCc3ccc(S(C)(=O)=O)cc3)cccn12	-3	.	-0.2%	-2.5	-0.5	0
FC(F)(F)c1cnc(NNC(=S)Nc2ccccc2)c(Cl)c1	-11	-6	?	-17	0.2	-5
CCc1c(C)nc2cc(-c3ccc(OC)cc3)[nH]n2c1=O	-24	10	4.3%	1.8	-1.1	-16
CC(C)(CC(=O)NCc1ccc(Cl)cc1Cl)CC1=NS(=O)(=O)c2ccccc2N1	.	-19	45µM*	.	0.8	.
C[C@@H]1CN([C@@H](C)CO)S(=O)(=O)c2ccc(Br)cc2O[C@@H]1CN(C)C(=O)NC1CCCCC1	5	-9	1.5%	-7.8	-0.5	0
Cc1ccc(-c2nnc(N3CCCCC3)c3ccccc23)cc1S(=O)(=O)NCC1CCCO1 (stereo not drawn)	?	-5	?	0.8	0.5	-14
CC(C)NC(=O)Nc1ccc2c(c1)C(=O)N([C@H](C)CO)C[C@H](C)[C@@H](CN(C)Cc1ccc(C(F)(F)F)cc1)OCCCC[C@@H](C)O2	3	14	0.4%	11	0.7	0
O=C1CC(NCc2cccs2)C(=O)N1c1ccc(Cl)cc1 (stereo not drawn)	3	0	-0.9%	0.2	-0.4	4
Cc1ccc(C)c(NC(=O)C(C)CC2COCCO2)c1 (stereo not drawn)	0	-16	-0.1%	0.0	3.5	2
CCOC(=O)c1ccc(N2C(=O)c3cccc4c(C(=O)O)ccc(c34)C2=O)cc1	4	28	3.6%	-2.9	0.7	-5
CC(C)c1ccc(NC(=O)CN2C=NS(=O)(=O)c3ccccc32)cc1	.	6	1.0%	.	-0.5	.
CCOc1ccc2nc(NC(=O)CSc3nnc(-c4ccncc4)n3CC3CCCO3)sc2c1 (stereo not drawn)	-3	-12	-1.8%	-1.1	0.2	-2
CN1/C(=C\C=N\O)C(C)(C)c2ccccc21	7	3	-1.1%	0.3	-0.5	3
COc1ccc2oc(=O)c(-c3csc(-c4ccc(Br)cc4)n3)cc2c1	.	9	2.1%	.	-0.8	.
O=C(CSc1nnc(C2CC2)n1C1CC1)c1ccccc1F	-6	21	1.9%	-2.6	-0.8	.
CCc1nc2ccccc2c(C(=O)OC2CCOC2=O)c1C (stereo not drawn)	-2	14	-0.5%	0.8	1.2	9
N#Cc1ccc(C(=O)Nc2cccc3cccnc23)c(F)c1	-1	16	0.1%	-1.2	0.7	5
CC(=O)NCC(=O)N(Cc1ccco1)C1(C(=O)NC2CCCCC2)CCCCC1	-6	2	-0.3%	-4.8	1.1	5
CCCS(=O)(=O)N1CCC(C(=O)NCCCN2CCC(Cc3ccccc3)CC2)CC1	0	-3	.	-2.1	-0.1	5
CCOc1ccc(Br)cc1C1NC(=O)c2c(sc3c2CCN(C)C3)N1 (stereo not drawn)	.	2	6.9%	.	0.6	.
COc1cccc(C(C(=O)NC2CCCC2)N(C(=O)c2ccco2)c2ccc(-n3cnnn3)c(C)c2)c1OC (stereo not drawn)	14	2	1.1%	3.1	-0.9	0
COc1ccc(C(=O)NNC(=O)c2ccccc2[N+](=O)[O-])cc1Br	-11	21	9.6%	-0.6	-0.6	-8
O=C(Nc1cc(Cl)ccc1-n1cncn1)c1ccc(F)c(S(=O)(=O)N2CCOCC2)c1	5	13	0.3%	-1.4	-0.3	6
COc1ccc(-c2ccc(C(=O)NC(C)C)c3occc23)c(C)c1	-8	4	8.0%	2.0	0.5	1

# Laid out differently: results already given.
# Values run as follows: Six1-Eya2 inh	TRPML1 blocker	PINK1 expr mod	D2 agonist	TRPML1 ag	CtBP-E1A inh
CC(=O)NCC(=O)N(Cc1ccco1)C1(C(=O)NC2CCCCC2)CCCCC1
→ -6	2	-0.3%	-4.8	1.1	5
N#Cc1ccc(C(=O)Nc2cccc3cccnc23)c(F)c1
→ -1	16	0.1%	-1.2	0.7	5
COc1ccc(-c2ccc(C(=O)NC(C)C)c3occc23)c(C)c1
→ -8	4	8.0%	2.0	0.5	1

# Other structures
SMILES	Six1-Eya2 inh	TRPML1 blocker	PINK1 expr mod	D2 agonist	TRPML1 ag	CtBP-E1A inh
C=C(C)CN(CC)C(=O)CN1C(=O)NC(C)(c2ccc3ccccc3c2)C1=O (stereo not drawn)	-1	7	-0.5%	-0.1	-0.4	.
O=C(NC(=S)N1CCN(c2ccc(F)cc2)CC1)c1ccccc1	-3	25	0.4%	-5.5	-0.1	-9
CN(C)/C=N/c1ncc(C(=O)c2ccc(Cl)cc2Cl)s1	1	22	0.4%	-7.0	-0.3	0
CNC[C@@H]1OCc2ccccc2-c2c(n(C)c3ccccc23)C(=O)N([C@H](C)CO)C[C@H]1C	7	-6	1.0%	-3.8	-0.2	-7
O=C(CN1CCN(C(=O)C2CCCO2)CC1)Nc1ccc(F)cc1 (stereo not drawn)	0	-3	-0.8%	2.6	0.1	1
COc1ccc(-c2ccc(C#N)c(SCC(=O)Nc3sc4c(c3C#N)CCC4)n2)cc1OC	0	-5	3.3%	0.9	1.1	4
CCc1cccc(NC(=O)Cn2c(=O)n(CCC(=O)NCc3ccccc3Cl)c(=O)c3sccc32)c1	.	-7	0.4%	.	1.7	.
COc1ccc(C)cc1NC(=O)CSc1nnc(COc2ccc(C)cc2)n1Cc1ccco1	-10	3	-1.4%	2.9	1.0	-2

# Entries listed so far printed as active in PINK1 expr mod:
compound	Six1-Eya2 inh	TRPML1 blocker	PINK1 expr mod	D2 agonist	CtBP-E1A inh
CC(C)(CC(=O)NCc1ccc(Cl)cc1Cl)CC1=NS(=O)(=O)c2ccccc2N1	.	-19	45µM*	.	.

# (next part)
SMILES	Six1-Eya2 inh	TRPML1 blocker	PINK1 expr mod	D2 agonist	TRPML1 ag	CtBP-E1A inh
Cc1ccc(NC(=O)COC(=O)Cc2c[nH]c3ccccc23)cc1	3	5	0.9%	-4.4	-1.1	-3
Cc1cc(C)cc(OCc2nnc(SCC(=O)Nc3ccccc3)o2)c1	-2	9	3.7%	-4.0	2.5	3
CCN(Cc1ccccc1)C(=O)c1ccc(Cl)cc1[N+](=O)[O-]	-6	9	0.9%	0.7	-0.9	-7
Cc1ccccc1S(=O)(=O)Cc1ccc(C(=O)NCc2cccnc2)o1	0	-10	59%[38.3 µM]	-3.1	-0.7	12
CNC(=O)c1ccsc1NC(=O)c1ccccc1	-8	-18	0.8%	-0.1	0.6	?
CCc1sc(C(=O)N2CCN(c3ncccn3)CC2)cc1Br	3	-8	1.0%	1.9	0.8	3
